# D2 PAM – potentiates the human D2 dopamine receptor allosterically; DiscoveRx D2 beta-arrestin cells, luminescence, 90 min; 100% = 57 uM dopamine signal; potentiation, % (concentration not given with the values); hit rate 0.23% among 360,000; AID 624464; active = potentiation of 50% or more; inconclusive = 30% to 50%; inactive = 30% or less;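 further: compound concentration not given in the record; tested on top of an EC20 dose of dopamine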
#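 PathHunter D2 cells, attached overnight at 37 deg C, received compound in DMSO plus dopamine at EC20 (50 nM final) for 90 min at 37 deg C. Beta-arrestin recruitment was read as luminescence after 1 h with detection reagent at ambient temperature.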
# CtBP-E1A inh – blocks the CtBP interaction with E1A. activity change, % (no concentration beside the values). AlphaScreen GST-E1A/His-CtBP binding, 1536-well; stronger effect = lower value; control for the full effect not named in the record. hit rate 0.49% among 340,000; in the data active means activity change below about -65%; inconclusive means about -30% to -65%; inactive means above about -30%; further: on the % scale 0 is the no-effect control and ±100 the full control effect; compound concentration not given in the record
#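 Protein mix (5X: 125 nM each GST-E1A, His-CtBP) was incubated with pinned compound 2 h at 37 deg C in dark, in 50 mM Tris pH 8.0 buffer with 300 mM NaCl. Glutathione donor and nickel acceptor beads followed; AlphaScreen signal read after 1 h.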
# gsp antag – antagonizes gsp, the McCune-Albright syndrome mutation | gsp-mutant cells, cAMP HTRF, 30 min; control for the full effect not named in the record | Potency, µM (top dose mostly 76.9 µM), without a hit: top-dose activity change, negative = inhibition, actives largely listed as inhibitors | hit rate 0.4% among 340,000 | AID 624288; active = falling curve of any shape with a large fitted effect; inconclusive = falling curve, mostly with a smaller effect; inactive = flat or rising curve; cell line not stated here;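 further: intracellular cAMP measured with PDE inhibitor Ro 20-1724 present during compound exposure; potency means the concentration at half of the fitted maximal effect; on the % scale 0 is the no-effect control and ±100 the full control effect; nearly all actives have a fitted effect of over 65% in size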
#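 Cells in G418 medium, seeded 16-24 h, 37C; buffer exchange to DPBS + 1 mM CaCl2, 0.5 mM MgCl2, 0.05% BSA; cpds in DMSO + […] (300 uM stock), 30 min 37C; HTRF cAMP detection.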
# D2 agonist – human D2 receptor agonism in beta-arrestin assay; P14416; DiscoveRx PathHunter D2 beta-arrestin, luminescence, 90 min; 100% = 57 uM dopamine signal; activation, % (test concentration not listed); hit rate 0.084% among 360,000; AID 624465; in the data active = activation above about 40%; inconclusive = about 15% to 40%; inactive = below about 15%; further: compound concentration not given in the record; the text of the record calls up to 30% inactive
#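 DiscoveRx PathHunter D2 beta-arrestin cells (2,100/well) attached overnight, then compound-stimulated 90 min at 37 C in HBSS/10 mM HEPES/0.1% Tween-20 buffer; beta-galactosidase complementation read by luminescence after 1 h at ambient temperature. Dopamine 57 uM final (EC100) as control.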
# gsp agonist – agonists of gsp mutant (McCune-Albright syndrome). AID 624287. Potency, µM (doses to about 76.9 µM), without a hit: at the top dose activation (cAMP increase), most hits filed as activators. hit rate 0.13% among 340,000. gsp mutant cells, cAMP HTRF, 30 min; control for the full effect not named in the record; active = well fitted activation curve with a large enough effect; inconclusive = small, poorly fitted or top-dose-only effect, or another doubt; inactive = no such curve, though single readings can be large or run the other way; cell line not stated here;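 further: phosphodiesterase inhibitor Ro 20-1724 added with compounds to block cAMP breakdown; potency means the concentration at half of the fitted maximal effect; nearly all actives have a fitted effect of over 60% in size; about a fifth of the inactives were tested at one dose only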
#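 Cells stably selected in G418 were plated at 2000/well, grown 16-24 hr, then given compounds in DMSO with the PDE inhibitor […] (300 uM solution added) for 30 min at 37C; cAMP was read by HTRF.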
# Six1-Eya2 blk – Six1/Eya2 interaction inhibition; Q15475+O00167; AlphaScreen GST-Six1/His-Eya2 binding, biochemical; stronger effect = lower value; control for the full effect not named in the record; activity change, % (test concentration not listed); hit rate 0.56% among 360,000; in the data active = activity change below about -65%; inconclusive = about -30% to -65%; inactive = above about -30%; further: on the % scale 0 is the no-effect control and ±100 the full control effect; compound concentration not given in the record
# Target sequence (O00167 whole entry, looked up): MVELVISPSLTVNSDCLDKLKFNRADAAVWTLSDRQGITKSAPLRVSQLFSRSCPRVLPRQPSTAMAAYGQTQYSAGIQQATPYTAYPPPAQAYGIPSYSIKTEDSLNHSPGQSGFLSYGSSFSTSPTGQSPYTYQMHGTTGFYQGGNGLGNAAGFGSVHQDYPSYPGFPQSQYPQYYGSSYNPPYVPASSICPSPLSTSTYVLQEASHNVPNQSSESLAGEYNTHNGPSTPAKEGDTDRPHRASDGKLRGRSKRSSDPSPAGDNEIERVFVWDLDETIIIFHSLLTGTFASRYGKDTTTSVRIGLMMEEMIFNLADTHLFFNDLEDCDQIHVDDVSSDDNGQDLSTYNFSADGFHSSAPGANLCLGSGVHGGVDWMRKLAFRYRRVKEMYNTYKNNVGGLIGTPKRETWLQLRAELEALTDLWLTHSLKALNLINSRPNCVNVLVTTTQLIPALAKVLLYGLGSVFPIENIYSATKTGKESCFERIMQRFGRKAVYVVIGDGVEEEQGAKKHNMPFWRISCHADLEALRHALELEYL
# Target sequence (Q15475 whole entry, looked up): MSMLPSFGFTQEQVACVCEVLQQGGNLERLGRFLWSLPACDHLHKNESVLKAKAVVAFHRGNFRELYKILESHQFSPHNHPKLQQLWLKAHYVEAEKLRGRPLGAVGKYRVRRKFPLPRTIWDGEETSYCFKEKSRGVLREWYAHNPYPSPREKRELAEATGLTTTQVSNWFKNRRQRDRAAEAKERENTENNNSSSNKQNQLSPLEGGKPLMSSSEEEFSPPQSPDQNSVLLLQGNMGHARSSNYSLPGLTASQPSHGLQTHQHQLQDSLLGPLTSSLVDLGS
#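 Six1/Eya2 binding was read as AlphaScreen signal after compounds were pinned into GST-Six1 plus His-tagged Eya2 (5X stock 250/500 nM) in pH 8.0 Tris/NaCl/TCEP buffer, beads added, then incubated 1 h, 37 C, dark.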
# * = called active by the depositor; u = inconclusive; x = not tested or not shown; [ ] = another dose, or the depositor's remark. Hits appear at their usual frequency; overall some 1.4% were active at least once.
molecule	D2 PAM	CtBP-E1A inh	gsp antag	D2 agonist	gsp agonist	Six1-Eya2 blk
CCCCC[C@H]1CN(Cc2ccccc2)C(=O)[C@@H]1CC(=O)NCc1ccccc1	-15.8	-1.3	-12.5%	-3.2	-17.0%	-2.3
CCN(C(=S)Nc1cc(S(=O)(=O)N2CCOCC2)ccc1Cl)c1cccc2ccccc12	8.5	4.7	-1.4%	1.2	u	-13.1
CC1(C)Cc2cccc(OCC(=O)N3CCN(S(=O)(=O)c4ccc(F)cc4)CC3)c2O1	-14.4	-1.7	-19.9%	-3.6	6.7%	-3.3
Fc1ccc(/C=C2\CCCC3=C2Nc2ncnn2C3c2ccc(F)cc2)cc1 (centres undefined)	-4.6	-0.4	-11.3%	0.5	-66.3%[inhibitor]	-3.4
CCOc1ccc(N2CC(C(=O)NCCN3C(=O)S/C(=C\c4ccc(OC)cc4)C3=O)CC2=O)cc1 (centres undefined)	-18.0	-3.0	4.3%	-0.7	-5.0%	0.2
CCC(=O)NCc1c(C)c(C)n(Cc2ccccc2)c1-n1cccc1	-4.6	0.2	1.5%	-0.8	6.8%	-7.7
Cc1cc(C)c2c(c1)cc(C)c1nnc(SCC(=O)N3CCCc4ccccc43)n12	-7.6	-7.7	-15.6%	-3.7	27.4%	-0.9
CN(C)S(=O)(=O)N1CCC(C(=O)O)(c2ccccc2)CC1	-10.0	33.8	-4.5%	-0.6	1.0%	3.7
CCOc1ccc(CNC(=O)C2CCN(c3nnc(C)c4c(C)n(-c5ccc(C)cc5)nc34)CC2)cc1	-2.4	x	-12.6%	4.1	8.4%	-6.5
COc1ccc(C2C=C(c3ccc(C)cc3)Nc3ncnn32)cc1 (centres undefined)	-15.9	0.9	-3.7%	-5.4	7.2%	-0.9
Cc1ccccc1-c1cnc(C(O)c2ccc(-c3ccccc3)cc2)[nH]1 (centres undefined)	-12.2	u	x	-3.0	x	-15.7
O=C(COC(=O)Cc1n[nH]c(=O)c2ccccc12)NNC(=O)c1ccccc1	-1.1	-8.1	2.9%	-4.4	12.8%[15.4 µM]	1.0
O=C(CCc1ccccc1)NNC(=O)c1ccco1	-0.8	0.6	11.1%	3.2	32.9%	5.0
COC(=O)C1C(=O)c2c([nH]c(C(=O)OC3CCCC3C)c2C)CC1C (centres undefined)	1.1	-0.3	-23.2%	9.4	-42.0%[inhibitor]	-12.2
CCOC(=O)[C@H]1[C@H]2COc3ccc(OC)cc3[C@@H]2N2C(=O)CN(Cc3ccc(OC)cc3)C(=O)[C@@]12C	0.6	-2.4	-12.6%	1.5	7.8%	-6.3
Nc1nnc(Cc2ccccc2)s1	-3.1	2.8	0.9%	-2.1	-2.9%	4.9
CCCCc1nc(SCCOC)c2c(=O)n(C)c(=O)n(C)c2n1	0.0	-13.0	-23.7%	1.6	-22.3%[15.4 µM]	-1.5
COc1cc(NC(=O)c2ccc(Cl)cc2)c(OC)cc1NC(=O)CN1CCCCC1	-2.8	x	-19.5%	2.7	3.7%[15.4 µM]	-20.8
COc1cccc(C2CC(c3ccc(NS(C)(=O)=O)cc3)=NN2C(=O)c2ccccc2)c1OC (centres undefined)	0.0	-2.9	-27.8%	1.3	-3.0%[15.4 µM]	-1.0
Cc1nc(CSc2nsc(C)c2C#N)cs1	-5.0	-0.7	3.5%	-4.3	-9.0%[15.4 µM]	11.3
O=C(CNC(=O)Cn1ccc2ccccc2c1=O)NCCCN1CCN(c2cccc(Cl)c2)CC1	-46.7	-4.5	12.4%	-2.8	-29.6%	-3.7
O=C(c1ccc(N2CCN(C(=O)c3ccc(F)cc3F)CC2)cc1)c1cccc(F)c1	6.1	9.4	35.5µM*	0.8	-1.1%	11.3
Cc1ccc(C)c(NS(=O)(=O)c2cc(C(=O)NCc3ccco3)ccc2C)c1	-5.6	-13.6	-14.2%	-1.0	-26.8%	-4.1
CC(C)(C)NC(=O)CCC1COc2ccccc2O1 (centres undefined)	-9.7	6.0	9.5%	-0.5	-36.3%[inhibitor]	0.4
CN(C(=O)CSc1nc(N)cc(N)n1)C1CCS(=O)(=O)C1 (centres undefined)	-1.6	0.1	6.5%	1.6	u	-3.2
CCOc1ccc(CCNC(=O)Cn2ccc3cc(S(=O)(=O)N4CCCC4)ccc32)cc1	-7.9	0.0	-10.1%	-1.8	15.4%	10.6
Cc1ccc(S(=O)(=O)N2CCCCC2)cc1NC(=O)COc1ccccc1F	-5.1	-14.9	-6.4%	-2.3	16.6%	3.0
c1ccc(-c2ccccc2OCCN2CCCCC2)cc1	-35.2	2.1	-10.2%	-4.2	7.4%	-3.7
COc1cc(Cn2c3ccc(NC(=O)CC(C)(C)C)cc3c(=O)n2C)ccc1F	-4.2	1.8	x	2.1	x	-1.9
CS(=O)(=O)c1ccc2nc(NC(=O)c3ccc(NS(=O)(=O)c4ccc(F)c(F)c4)cc3)sc2c1	-11.6	x	-0.2%	-3.3	-20.4%	-0.1
COC(=O)CCCN1C(=O)NC(c2ccc(-c3ccccc3)cc2)C(C(=O)OCc2ccccc2)=C1C (centres undefined)	-4.9	-11.5	-7.2%	-0.5	x	3.6
CN(C)C(=O)c1cn(N(C)c2ncc(C(F)(F)F)cc2Cl)c(=O)c2ccccc12	-28.6	3.5	5.7%	-1.7	-10.7%	2.5
COc1ccc(-c2nnc(N(C)C(=O)c3ccno3)s2)cc1	-5.4	2.7	16.0%	-10.6	u	-3.4
COc1ccc(OC(=O)C(C)N2C(=O)c3ccccc3C2=O)cc1 (centres undefined)	-22.1	6.3	-13.8%	-3.2	1.6%[15.4 µM]	-9.7
CCOC(=O)/C(C#N)=C1/C(=O)N(Cc2ccccc2)c2ccccc21	-15.5	9.9	-1.9%	-7.5	-5.4%	-17.8
O=[N+]([O-])c1cccc(COc2ncnc3cc([N+](=O)[O-])ccc23)c1	26.3	-88.1*	-0.3%	4.7	u	-71.9*
N#Cc1c(SCC(=O)O)nc(-c2ccccc2)c2c1CCCC2	-2.3	-2.4	5.3%	-2.0	u	-3.0
CCCCCCNC(=O)CSc1nccn1Cc1ccccc1	-19.9	10.2	3.0%	-1.2	-52.2%[inhibitor]	-1.9
CC1(C)CN(c2ccc(CC#N)cc2)C1=O	-5.4	x	8.7%	2.2	4.7%[15.4 µM]	7.9
CC(C)(C)c1cc(CCC(=O)N2CCCC2)cc(C(C)(C)C)c1O	-30.6	-24.9	-5.2%	-4.1	21.8%	-22.7
NS(=O)(=O)c1ccc(NC(=S)Nc2ccc(S(=O)(=O)N3CCCC3)cc2)cc1	1.0	-3.9	8.0%	2.5	20.7%	7.9
CCN1CCCC1CNc1ncnc2c1[nH]c1ccc(F)cc12 (centres undefined)	-38.9	-10.4	4.4%	-2.5	-6.2%	3.0
Cc1[nH]c(=O)[nH]c(=O)c1S(=O)(=O)N1CCOCC1	2.0	5.0	-4.7%	-2.1	-10.6%	7.2
CC1CCCCN1S(=O)(=O)c1ccc(NC(=O)c2cccc(-n3cnnn3)c2)cc1 (centres undefined)	-5.8	-5.6	-23.3%	-0.3	-2.7%	-8.9
COCc1cc(=O)n2[nH]cc(-c3ccccc3)c2n1	-4.1	0.1	-16.1%	-2.5	1.8%[15.4 µM]	9.9
Cc1cc(Oc2ccccc2)nc(N)n1	-4.7	0.3	10.8%	1.5	23.3%	0.6
Cc1cccc(C(=O)N/C(=C/c2ccco2)C(=O)N2CCCCCC2)c1	-11.3	-1.3	5.0%	-2.6	-0.4%	-7.8
O=C(NNC(=O)c1ccc(S(=O)(=O)N2CCCCC2)cc1)c1ccc(F)cc1	-4.7	-4.8	20.2%	-0.3	-15.8%[15.4 µM]	-0.7
COc1cc(C(=O)OCC(=O)Nc2cc(C)on2)c([N+](=O)[O-])cc1OC	-12.0	-2.6	-14.0%	1.7	10.7%[15.4 µM]	-0.6
COc1ccc(/C=C/C(=O)c2ccccc2O)cc1	-3.5	8.7	-9.5%	-2.0	x	8.5
CCn1c(SCC(=O)N/N=C/c2ccncc2)nc2ccccc21	-14.9	x	-8.1%	-2.4	-1.7%	-0.9
COc1ccc(N2CCN(C(=O)CSc3nnc4c(C)cc5ccccc5n34)CC2)cc1	-2.1	10.9	5.8%	-1.3	-25.0%	-10.3
CCCNC(=O)C1(C)CCCN(C(=O)CN2C(=O)c3ccccc3C2=O)C1 (centres undefined)	-5.3	-13.6	x	1.8	x	8.5
Cc1ccc(C(=O)N/C(=C/c2ccco2)C(=O)NCCc2c[nH]c3ccccc23)cc1C	-21.1	-10.2	-4.9%	-3.6	u	-3.6
C=CCNC(=O)C1CCCN(S(=O)(=O)c2ccc(-n3cnnn3)cc2)C1 (centres undefined)	2.6	-0.1	-2.3%	2.7	-13.7%	4.0
O=C(NCC(=O)N1CCN(C(=O)c2ccco2)CC1)c1cccc(Cl)c1	-1.5	-20.4	11.7%	-1.0	7.2%	8.2
COC(=O)C1CCN(C(=O)COc2cc3sc(C)nc3c3sccc23)CC1	-1.3	-3.6	14.8%	2.8	-18.1%	-3.9
CC1(C)Cc2ccccc2C(NNC(=O)c2ccccc2)=N1	-3.8	18.8	-5.3%	-2.0	-9.7%[15.4 µM]	-13.0
COc1ccc(N=C2SC(CC(=O)Nc3ccccc3)C(=O)N2Cc2ccco2)cc1 (centres undefined)	0.2	-27.9	-14.8%	-1.7	-13.8%[15.4 µM]	-0.8
CCCCn1c(N)c(N(CCOC)C(=O)CCS(=O)(=O)c2ccc(C)cc2)c(=O)[nH]c1=O	-9.0	-7.0	x	-5.0	-96.7%[inhibitor]	-5.4

# The listing continues.
molecule	D2 PAM	CtBP-E1A inh	gsp antag	D2 agonist	gsp agonist	Six1-Eya2 blk
CC(=O)Nc1ccc(S(=O)(=O)NCCc2c[nH]c3ccc(C)cc23)cc1	-5.0	4.3	8.8%	-2.1	-7.5%[15.4 µM]	16.1
COc1ccc(C(=O)c2c(C)oc3ccc(O)cc23)c(OC)c1	0.3	-1.8	-0.2%	4.5	-4.6%	8.6
c1ccc(CCN2CN=C(Nc3nc4ccccc4o3)NC2)cc1	-6.4	-1.2	-3.0%	-2.6	u	-2.0
CC(=O)NCCC(=O)Nc1cc(S(=O)(=O)N2CCCCC2)ccc1Oc1ccccc1	14.0	-0.8	1.7%	-0.6	2.6%	-3.4
CC(C)n1cc(/C=C2/SC(=O)N(CC(=O)Nc3ccc4c(c3)OCO4)C2=O)c2ccccc21	-22.6	-2.4	11.4%	-5.0	-9.3%	-2.0
